LANA-nucl inh – LANA-nucleosome interaction inhibition; FITC-LANA1-23 / chicken nucleosome fluorescence polarization; active compounds read low; actives 0.3% (n = 51,000); AID 720717; z-score (test concentration not listed);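 active = both repeat wells score below -2 in polarization z-score versus plate sample wells, excluding overly bright wells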;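 also: 100 nL library stock added to about 30 µL; numbers are from one replicate; some results filed as inactive read as strong as hits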
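test system = FITC-LANA peptide and chicken nucleosomes | amount = 240 nM purified chicken nucleosomes (480 nM peptide binding sites), final | reagent = 50 nM FITC-LANA1-23 probe | medium = TEN-BT buffer, pH 7.5 | doses = single compound addition by pin transfer, 100 nL per well | timing = 10–45 min, room temperature | detection = fluorescence polarization | repeats = duplicate plates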
BasE inh – inhibitors of Acinetobacter baumannii siderophore enzyme BasE | purified BasE, fluorescence polarization binding displacement | inhibition, % (concentration not given with the values) | actives 0.1% (n = 84,000) | AID 485350;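 active = both replicates above 25% with normal brightness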;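 also: 0% = negative plate control signal and 100% = positive plate control signal; stock transfer was 100 nL into about 30 µL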
An asterisk follows results filed as active; . = not tested or not shown; & = joins results of further samples. Not all compounds are listed; the hit share may differ from the screen's.

SMILES | LANA-nucl inh | BasE inh
Fc1cccc(-n2ncc3c2ncn2nc(-c4ccccc4)nc32)c1 | -0.69 | 0.3
c1ccc2c3c([nH]c2c1)C1C2CCC(C4CCCNC42)N1CC3 (stereo unspecified) | -0.33 | 0.3
CCc1nc2n(n1)C(c1ccc3c(c1)OCO3)C(C(=O)Nc1ccccc1OC)=C(C)N2 (stereo unspecified) | . | 0.0
CCOC(=O)c1nc(N(C)C2CCCCC2)c2ccccc2n1 | 0.15 | -0.2
COc1ccc(-c2cc(=O)oc3c(C)c(O)c(CN4CCCC(C)C4)cc23)cc1 (stereo unspecified) | 1.1 | -0.5
CN(c1ccccc1C(N)=O)S(=O)(=O)c1ccccc1 | -0.7 | -0.7
Cc1cc2nc(NCCOc3ccccc3)c3ccccc3n2n1 | . | 4.7
CCOC(=O)Cn1c(=NC(=O)c2ccc(N3C(=O)CCC3=O)cc2)sc2cc(S(N)(=O)=O)ccc21 | -0.31 | -1.7
CC(=O)N1C(=O)C2(OCCO2)c2ccccc21 | 0.072 | -0.9
O=C1CCCN1CCCNc1ccc2nnc(CCC(=O)N3CCCCC3)n2n1 | -0.63 | 2.4
CC(C)c1cc(NC(C)c2ccccc2)n2c(nc3ccccc32)c1C#N (stereo unspecified) | . | 0.4
Cc1nn(CC(=O)NC2CCCCCC2)c(=O)c2nn(-c3ccccc3)c(C)c12 | . | 9.7
Cc1nccc(-c2cccc(N/N=C(\C#N)S(=O)(=O)c3ccccn3)c2)n1 | 0.38 | -1.3
CC1CCN(C(=O)CCNS(=O)(=O)c2ccc3c(c2)c(=O)n(C)c(=O)n3C)CC1 | 0.018 | -3.2
CCCn1c(C)cc(C(=O)COC(=O)c2ccc(S(C)(=O)=O)cc2)c1C | . | -3.8
CN1C(=O)N(C)C2CC1N(C)C(=O)N2C | 1.4 | -1.5
CCCN(CCC)S(=O)(=O)c1ccc2c(c1)C(=C(C)C)C(=O)N2 | . | -1.3
COc1cc(C(F)(F)F)nc2ccc(C#CCOC(=O)c3ccccc3)cc12 | . | 1.7
CC(C)(C)c1ccc(-c2noc(-c3ccc4c(c3)CCO4)n2)cc1 | . | -3.7
CCCCc1c(O)cc(-c2ccccc2)n(Cc2ccccc2)c1=O | . | 2.5

4 entries from above, reformatted:
CC1CCN(C(=O)CCNS(=O)(=O)c2ccc3c(c2)c(=O)n(C)c(=O)n3C)CC1
  LANA-nucl inh: 0.018	BasE inh: -3.2

CCCn1c(C)cc(C(=O)COC(=O)c2ccc(S(C)(=O)=O)cc2)c1C
  LANA-nucl inh: .	BasE inh: -3.8

CN1C(=O)N(C)C2CC1N(C)C(=O)N2C
  LANA-nucl inh: 1.4	BasE inh: -1.5

CCCN(CCC)S(=O)(=O)c1ccc2c(c1)C(=C(C)C)C(=O)N2
  LANA-nucl inh: .	BasE inh: -1.3

More entries follow.
SMILES | LANA-nucl inh | BasE inh
CC(OC(=O)c1ccc2c(c1)S(=O)(=O)N=C1CCCCCN12)C(=O)NC1CC1 (stereo unspecified) | . | -0.2
CN(C)/N=C/c1cn(-c2ccccc2)nc1-c1cccnc1 | . | 2.8
CCC(CC)NC(=O)c1cccc(OC)c1OC | 1 | 3.8
CCSc1nc2c(c(=O)[nH]1)C(C(C)C)C(C#N)=C(N)O2 (stereo unspecified) | . | 3.2
CCCn1c(-c2ccc(F)cc2)cnc1SCC(=O)N1CCCCC1C (stereo unspecified) | 0.097 | 0.5
c1ccc(C2=Nn3c(nnc3-c3cnccn3)SC2)cc1 | 2.5 | -3.9
CNC(=S)Nc1cccc(C(=O)OC)c1 | 0.1 | 0.6
O=C1CSC(=O)N1CCN=Cc1c(O)n(Cc2ccccc2)c(=O)c2ccccc12 | . | -17
COc1ccc(C(=O)C(C(c2ccccc2)N2CCOCC2)N2CCOCC2)cc1 (stereo unspecified) | . | 0.8
CCOc1ccc2c(c1)s/c(=N/C(=O)Nc1ccc(OC)cc1)n2C | 0.21 | -1.1
OC1CCCc2ccccc21 (stereo unspecified) | . | -3.1
CCOC(=O)c1c(C)oc2cc(Br)c(O)c(CN(C)C)c12 | 0.14 | -1.0
CC(C)CN(CC(C)C)c1nc(N)c(C#N)c(CC#N)c1C#N | . | 0.1
O=C1NC(=O)C2CC=CCC12 (stereo unspecified) | . | 0.0
Cc1ccc(SCC(=O)NCCCN2CCCC2=O)c(C)c1 | . | -0.8
O=C(NCCN1CCCC1)c1ccc(Cl)cc1 | -0.041 | -0.9
O=C(Cn1cnc2c(nnn2Cc2ccccc2)c1=O)c1ccccc1 | -0.45 | 0.5
O=C(c1noc2c1CCc1sccc1-2)N1CCc2ccccc21 | -0.35 | 0.4
CN(C)c1nc(SCC(N)=O)nc(N(C)C)n1 | -0.18 | 4.4
COc1ccc(/C=[N+](\C)[O-])c(OC)c1 | . | 1.2

As a short view, 3 of the compounds above.
SMILES | LANA-nucl inh | BasE inh
OC1CCCc2ccccc21 (stereo unspecified) | . | -3.1
CCOC(=O)c1c(C)oc2cc(Br)c(O)c(CN(C)C)c12 | 0.14 | -1.0
CC(C)CN(CC(C)C)c1nc(N)c(C#N)c(CC#N)c1C#N | . | 0.1

Continuation.
SMILES | LANA-nucl inh | BasE inh
CCOC(=O)c1c(CSc2ccsc2)n(C)c2cc(Br)c(O)c(CN(C)C)c12 | 0.48 | -5.0
COc1cccc(NC(=O)CN(C)CC(=O)Nc2cccc(Br)c2)c1 | . | -3.2
Cc1cc(CC(=O)O)n(C)c1C(=O)c1ccc(Cl)cc1 | 0.14&-1.3&0.5 | -1.9&-1.3
Cc1cc(C)cc(CC(C(=O)O)C(C)C(=O)Nc2cccc(C(F)(F)F)c2)c1 (stereo unspecified) | . | -0.2
COC(=O)Cc1[nH]n(-c2ccccc2)c(=O)c1C=Nc1ccc(C)cc1 | . | 7.7
COc1ccc(C(=O)CN2CCCc3cc(C)ccc32)cc1 | . | 0.2
CC(C)S(=O)(=O)/C(C#N)=C/Nc1ncccn1 | . | -5.2
CCOC(=O)c1cc2c(ccn2-c2ccc(F)cc2)n1CC(=O)c1ccc2c(c1)OCCO2 | -1.1 | -0.6
O=C(COc1ccc(Cl)cc1Cl)NC(=O)NC1CCCC1 | . | 2.1
O=C(Nc1nnc(-c2ccc(Cl)cc2)o1)C1CC1 | 0.17 | -0.5
CCN1CCC(=NNC(=O)COc2ccc(Cl)cc2Cl)CC1 | . | 0.5
Cc1nc2ccccn2c(=O)c1NC(=O)C(C)C | 0.21 | 0.8
N#CCc1c(C#N)c(N)nc(Nc2ccccc2)c1C#N | . | -13
O=C(NCCN1CCN(C(=O)Nc2ccccc2)CC1)Nc1ccccc1 | 0.48 | 0.9
c1ccc(NCC2OCc3ccccc3CO2)cc1 | . | 1.2
CC(=O)Oc1ccc(-c2nc(-c3ccccc3)no2)cc1 | -2.2 | 1.1
COc1ccc2c(c1)c1c3n2CCN(C)C3=NCC1 | 0.36 | -4.7
Cc1cccc(C)c1N=C(NO)c1nonc1N | -1.1 | 3.1
CC(Sc1nnc(-c2ccco2)n1C(C)C1CC2CCC1C2)C(N)=O (stereo unspecified) | . | 0.0
COC(=O)c1c(Cc2cccc(C(F)(F)F)c2)c[nH]c1C | . | 3.1
CCSc1nc2c(c(=O)n1CC)C1(CCCC1)Cc1ccccc1-2 | . | -0.4
CN1C(=O)CC(c2ccco2)Sc2ccccc21 (stereo unspecified) | 0.88 | -1.2
CC1S/C(=N\N=C/C23CC4CC(CC(C4)C2)C3)NC1=O (stereo unspecified) | -0.39 | -0.3
Cn1cnnc1SCC(=O)Nc1ccccc1 | 0.41 | 0.5
COC(=O)NC1c2ccccc2Oc2ccc(C)cc21 (stereo unspecified) | -0.22 | 2.7
CCNc1c(NS(=O)(=O)c2ccc(C)cc2)c(=O)oc2ccccc12 | -0.075 | 0.2
CC(Sc1n[nH]c(-c2ccncc2)n1)C(=O)N(C)c1ccccc1 (stereo unspecified) | . | 1.1
CC(=O)Nc1c(C(=O)N2CCOCC2)sc2nc3c(cc12)COC(C)(C)C3 | 3 | -1.0
c1ccc2c(CN3CCN(Cc4ccncc4)CC3)c[nH]c2c1 | -0.82 | 0.9
CN(C)c1c(F)cc(C(=O)NCc2ccccc2)cc1F | 0.21 | 2.5

Whole records as entered above:
Entry for CCOC(=O)c1nc(N(C)C2CCCCC2)c2ccccc2n1 : LANA-nucl inh: 0.15; BasE inh: -0.2
Entry for CCSc1nc2c(c(=O)[nH]1)C(C(C)C)C(C#N)=C(N)O2 (stereo unspecified) : LANA-nucl inh: .; BasE inh: 3.2

Continuation:
SMILES | LANA-nucl inh | BasE inh
CC1=CC(=C2C(=O)NC(=S)NC2=O)C=C(C(F)(F)F)N1CCOCCO | 0.084 | 0.8
COc1ccc(C)cc1NC(=O)C1CC1C (stereo unspecified) | . | 0.6
Nc1cccc(C(=O)N2CCOCC2)c1 | -0.77 | -0.5
O=C(COC(=O)c1ccc(O)cc1)Nc1cc(C(F)(F)F)ccc1N1CCOCC1 | . | -0.6
CCNC(=O)C1CCCN(S(=O)(=O)N(CC)c2ccc(OCC)cc2)C1 (stereo unspecified) | 0.47 | 1.9
Cc1n[nH]c(C)c1CS(=O)(=O)c1ccccc1 | 0.37 | .
COc1ccc(N2CCN(Cc3nc4ccsc4c(=O)[nH]3)CC2)cc1 | . | 1.3
CCC(=O)c1ccc(OC(F)F)cc1 | . | -0.1
CCOC(=O)c1c(C)c(C(=O)N2CC(C)CC(C)C2)c(C)n1C (stereo unspecified) | 0.013 | 0.8
COC(CNc1ncnc2sc3c(c12)CCC3)OC | . | 1.4
COc1ccc(-c2cc(C(=O)NCC3CCCO3)on2)cc1OC (stereo unspecified) | -1.1 | -0.8
Cc1ccc(NC(=O)Cn2c(=O)/c(=C/c3ccc(N(C)C)cc3)s/c2=C\C#N)cc1 | . | -3.9
Cn1c(N)c(C(=O)CN2CCN(S(=O)(=O)/C=C/c3ccccc3)CC2)c(=O)n(C)c1=O | . | 5.8
CN(C)/C=C1\C(=O)N(c2ccccc2)C(=O)C1=Nc1ccccc1 | -0.93 | .
CS(=O)(=O)Nc1ncnc2sccc12 | . | -2.1
N#Cc1ccc(NC(=O)c2cc(C3CC3)nn2-c2ccccc2)cc1 | . | 2.2
CCc1ccc2nc(N3CCC(C(=O)NC4CC4)CC3)sc2c1 | 0.26 | -2.4
O=C(CSc1ncccn1)c1ccc(O)c(O)c1 | 0.65 | 19
Cc1ccc(C(C)C)c(OCC(=O)Nc2cc(-c3nc4ncccc4o3)ccc2C)c1 | . | 0.8
Cc1cc(/C=N/NC(=O)c2ccncc2)c(C)n1-c1ccccc1 | 0.82 | 0.1
O=C(CCc1nc2ccccc2c(=O)[nH]1)N(Cc1nnc(-c2ccccc2Cl)o1)C1CC1 | . | -1.0
COC(=O)CN1C(=O)C(=Cc2ccc(N(C)C)cc2)SC1=S | . | 7.5
CC1CCN(C(c2nnnn2Cc2ccccc2)C(C)C)CC1 (stereo unspecified) | -0.8 | 0.7
C1Cc2nnc3c4c(nnc(c24)C1)CCC3 | 1.1 | -1.6
CC(C)N/C=C1/C(=O)c2sccc2N(Cc2ccccc2)S1(=O)=O | . | -2.4
O=C(Nc1cccc(-c2noc(-c3ccccc3)n2)c1)c1cccs1 | 0.34 | -3.4
CC(=O)NS(=O)(=O)c1ccc(NC(=O)c2ccccc2C(=O)O)cc1 | 0.23 | 0.4
CCCn1c(N)c(C(=O)COC(=O)c2cc(-c3ccc(C)o3)nc3ccccc23)c(=O)[nH]c1=O | . | 0.5
N=C(N=C(N)N)N1CCCc2ccccc21 | 0.35 | 0.8
CN(N)c1cc(=O)n(C)c(=O)[nH]1 | -0.36 | -0.8
COC(OC)c1ccc(C#N)c(SCC(=O)c2ccccc2)n1 | . | 1.7
Cn1cc(Br)c(=O)n(C)c1=O | -0.31 | 0.2
CCOC(=O)c1ccc(-c2ccc(/C=C(\C#N)C(=O)NC(C)(C)C)o2)cc1 | 0.82 | 2.8
N#C/C(=C\c1cccnc1)C(=O)Nc1ccccc1 | 1.7 | 0.5
Nc1nc(SC/C=C/c2ccccc2)n[nH]1 | -0.0045 | .
Cc1cccc(-c2noc(CNC(=O)CC(C)(C)C)n2)c1 | -0.25 | -3.5
CS(=O)(=O)c1ccc(-c2nn[nH]n2)cc1 | 1.9 | -3.7
Cc1sc2c(c1C)CN(Cc1ccccc1)CN2C(=O)c1ccco1 | . | 1.0
Cc1ccc2c(c1)sc1nc(=O)ccn12 | -1.3 | 1.0
COC(CNC(=O)CN1CCN(Cc2ccc(F)cc2Cl)C1=O)OC | -0.023 | 1.3
O=C(NCc1ccccc1)c1cc(-c2ccco2)nc2ccccc12 | . | -4.1
Fc1cccc(-c2nnn3c2nc(Cl)c2ccccc23)c1 | -0.64 | 0.0
CC1=CCC2(CO)COC(c3ccccc3O)C1C2 (stereo unspecified) | -0.41 | -0.7
C=CCNC(=O)c1ccccc1OCc1ccccc1 | -0.22 | 1.3
Cc1nn(CCCC(=O)NC2CCCc3ccccc32)c(=O)c2cc3sccc3n12 (stereo unspecified) | 1.7 | -3.6
CN1CCN(C(=O)C2=C(N)C(C(=O)Nc3ccccc3Br)SC2=NCc2ccccc2)CC1 (stereo unspecified) | . | 3.0
CCOC(=O)c1[nH]c2ccc(OC)cc2c1N=C(C)N(C)C | . | 2.3
Cc1ccn2c(-c3nnco3)c(C)nc2c1 | . | 0.3
CCCN(CCC)c1sc(S(C)(=O)=O)nc1S(=O)(=O)c1ccc(C)cc1 | -0.17 | 1.1
CCn1cc2nc(SCC(=O)NC3CCCCC3)n(Cc3ccc(OC)cc3)c(=O)c2n1 | . | -0.8

High-throughput results as filed in PubChem.
